# YopH inh: YopH (Yersinia) phosphatase inhibition | fluorescence Ex485/Em525 | inhibition, %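 (about 10 µM by stock and volumes)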 | hit rate 0.16% among 140,000;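 active = inhibition of 50% or more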;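 note: controls were vehicle for no effect and minimum signal wells for full effect; inactives centre near -20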
# Arbovirus inh: antivirals against arbovirus infection | inhibition, % at 10 µM | hit rate 0.37% among 200,000 | arbovirus infection cell-based antiviral screen;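 active = inhibition from about 30%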;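 note: bluetongue infection of BSR cells; cell survival read as ATP light after 72 h; 0% = infected wells without compound and 100% = uninfected wells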
# Mtb growth: M. tuberculosis H37Rv growth inhibitors, H37Rv strain (AID 1626); M. tuberculosis H37Rv growth inhibition; higher % means a stronger effect; inhibition, % at 10 µM, or IC50 in µM where a hit was titrated; hit rate 0.95% among 220,000;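 active = confirmed in a dose series; inconclusive = inhibition above 80% but not taken into the dose series; inactive = below 80% or under 30% at every dose of the series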;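 note: bacteria incubated seven days before Alamar blue readout; 0% = bacteria only wells and 100% = bacteria with antibiotic wells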
# Mtb bLac sens: beta-lactam sensitization of Mtb H37Rv; M. tuberculosis H37Rv growth with meropenem, percent inhibition; hits of this screen are not shown here; inhibition, % at 25 µM; hit rate 0.27% among 330,000; AID 434955;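 active = about 74% or more and at least 40 points above the plate without the antibiotic, then above 30% in a dose series; inconclusive = first-round hits that could not be retested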;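 note: growth measured after seven days incubation then overnight dye step; 0% = bacteria only wells and 100% = bacteria with antibiotic; twin plates without the antibiotic show which effects depend on it; some results filed as inactive read as strong as hits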
# RecA intein inh: Mtb RecA intein splicing inhibition. P9WHJ3. cell-free RecA intein splicing, fluorescence. inhibition, %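 (about 9 µM by stock and volumes)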. hit rate 0.75% among 290,000. AID 2221; in the data active = inhibition above about 30%; inconclusive = no clear call, values can overlap the other calls;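 note: 0% = vehicle wells and 100% = reference inhibitor control wells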
# Target sequence (P9WHJ3 whole entry, looked up): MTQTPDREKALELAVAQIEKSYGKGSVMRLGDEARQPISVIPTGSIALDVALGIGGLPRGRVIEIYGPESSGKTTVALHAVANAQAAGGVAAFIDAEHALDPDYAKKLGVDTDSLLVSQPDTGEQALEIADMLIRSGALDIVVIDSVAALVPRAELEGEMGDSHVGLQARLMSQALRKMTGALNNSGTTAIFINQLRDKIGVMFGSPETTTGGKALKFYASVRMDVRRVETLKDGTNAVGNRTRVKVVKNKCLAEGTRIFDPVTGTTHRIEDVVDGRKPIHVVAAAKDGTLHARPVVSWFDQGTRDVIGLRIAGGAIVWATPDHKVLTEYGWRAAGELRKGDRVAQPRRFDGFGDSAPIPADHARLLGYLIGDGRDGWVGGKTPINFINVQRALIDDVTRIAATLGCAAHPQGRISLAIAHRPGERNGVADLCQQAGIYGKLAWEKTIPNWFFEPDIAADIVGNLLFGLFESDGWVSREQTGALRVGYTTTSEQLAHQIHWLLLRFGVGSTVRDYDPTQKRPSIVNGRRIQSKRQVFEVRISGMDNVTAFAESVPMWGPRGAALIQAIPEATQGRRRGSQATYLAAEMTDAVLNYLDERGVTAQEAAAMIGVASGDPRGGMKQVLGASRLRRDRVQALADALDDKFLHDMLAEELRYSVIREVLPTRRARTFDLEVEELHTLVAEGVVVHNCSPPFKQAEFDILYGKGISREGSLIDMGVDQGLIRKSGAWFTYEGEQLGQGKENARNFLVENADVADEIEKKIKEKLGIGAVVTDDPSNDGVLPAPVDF
# Arbovirus inh repeat: second read-out of Arbovirus inh, no call of its own (marks repeat the call); inhibition, %; measured here: 10K subset replicate screen; many hits read low in the repeat;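 first of two repeat runs on a subset; 0% = infected and 100% = uninfected wells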
# Starred values were filed as active, the others as inactive; ? = inconclusive; · = no result given.
# Start of the data: the first seven records, to show the layout:
SMILES,YopH inh,Arbovirus inh,Mtb growth,Mtb bLac sens,RecA intein inh,others
CCOc1cc(/C=N/Nc2nnc(C)n2N)ccc1OC(C)=O,·,·,·,3,-3.1,
CCCC(=O)NCCc1cc(OC)c(OC)cc1Br,-4,-8,-2%,0,-1.5,
CC(O)[C@H]1CNC(=O)C(=O)N1CC1CCCCC1 (stereo not given in full),·,·,3%,-4,-0.7,
CCC(=NCc1ccco1)c1c(O)n(-c2ccc(C)cc2)c(=O)[nH]c1=O,1,6,1%,·,-4.7,
COC(=O)c1ccc(COC(=O)c2ccc(N(C)C)cc2)cc1,8,0,-6%,90,·,
Cc1noc(C)c1S(=O)(=O)N1CCC(C(=O)N2CCN(C3CCCC3)CC2)CC1,-42,0,·,-9,-0.1,
CCCCNc1nc(C)c(C(C)=O)cc1C#N,·,-4,6%,-1,·,

# Main list, previewed entries included:
SMILES,YopH inh,Arbovirus inh,Mtb growth,Mtb bLac sens,RecA intein inh,others
CCOc1cc(/C=N/Nc2nnc(C)n2N)ccc1OC(C)=O,·,·,·,3,-3.1,
CCCC(=O)NCCc1cc(OC)c(OC)cc1Br,-4,-8,-2%,0,-1.5,
CC(O)[C@H]1CNC(=O)C(=O)N1CC1CCCCC1 (stereo not given in full),·,·,3%,-4,-0.7,
CCC(=NCc1ccco1)c1c(O)n(-c2ccc(C)cc2)c(=O)[nH]c1=O,1,6,1%,·,-4.7,
COC(=O)c1ccc(COC(=O)c2ccc(N(C)C)cc2)cc1,8,0,-6%,90,·,
Cc1noc(C)c1S(=O)(=O)N1CCC(C(=O)N2CCN(C3CCCC3)CC2)CC1,-42,0,·,-9,-0.1,
CCCCNc1nc(C)c(C(C)=O)cc1C#N,·,-4,6%,-1,·,
O=C(c1cccnc1)N1CCN(C(=O)c2cccc(Cl)c2)CC1,·,·,·,-8,-2.2,
CC(=O)c1ccc(OCC(=O)Nc2ccc3nc(C)sc3c2)cc1,·,-8,57%,89,-0.8,
COC(=O)c1nn(-c2ccccc2)c(Sc2ccc(OC)cc2)c1/C=N/O,-23,6,-5%,-4,3.6,
Cc1ccc(SCCC(=O)Nc2ccc(Br)c(C)c2)cc1,16,21,19%,95,6.1,
O=C(NC1(C(F)(F)F)NC(=O)N(Cc2cccnc2)C1=O)c1ccc(F)cc1 (stereo not given),10,2,-3%,-2,0.7,
CCOC(=O)N/N=C(C)/C=C/c1ccccc1,-7,-1,-9%,-5,-4.3,
COC(=O)[C@H](C)NC(=O)c1cc2c(cn1)[nH]c1ccccc12,·,·,·,20,4.1,
Cc1ccc2c(C)cc(=S)[nH]c2c1,·,0,2%,·,-0.8,
Cn1c(C(=O)NCC2CCCO2)cc2oc3ccccc3c21 (stereo not given),-31,-2,3%,5,0.5,
O=C(CSc1nc2ccccc2o1)N1CCN(C(=O)c2ccco2)CC1,-2,4,9%,-7,0.3,
C=CCn1c(-c2ccc(Cl)cc2)cnc1SC(C)C(N)=O (stereo not given),·,4,0%,-2,-0.3,
CCOc1ccc2nc(N(CCN(C)C)C(=O)c3ccc4c(c3)CCCC4)sc2c1,·,·,·,-17,12,
CCN1C(=O)CSC1=Nc1cccc(C(=O)O)c1,·,·,·,-10,-3.1,
O=C1CN(CC(=O)N2CCOCC2)c2ccccc2O1,-31,0,2%,97,6.9,
CC(C)OC(=O)NCCOC(=O)Nc1ccccc1Cl,·,6,0%,-2,0.0,
CCOc1ccc(NC(=O)c2sc(NC(C)=O)c(C(=O)OC)c2C)cc1,·,-8,-4%,9,-5.4,
Cc1ccc(C)c(NC(=O)CN(C)C(=O)Cc2ccccc2)c1,-23,1,15%,-4,0.2,
O=C(Nc1ccc(-c2nnc(-c3ccccc3)o2)cc1)C(F)(F)F,-20,-3,·,28,0.3,

# Gathered by group, the entries above containing bromine.
SMILES,YopH inh,Arbovirus inh,Mtb growth,Mtb bLac sens,RecA intein inh,others
CCCC(=O)NCCc1cc(OC)c(OC)cc1Br,-4,-8,-2%,0,-1.5,
Cc1ccc(SCCC(=O)Nc2ccc(Br)c(C)c2)cc1,16,21,19%,95,6.1,

# Other compounds follow:
SMILES,YopH inh,Arbovirus inh,Mtb growth,Mtb bLac sens,RecA intein inh,others
COc1ccc(C(=O)COC(=O)CCc2nc3ccccc3[nH]c2=O)cc1Br,·,2,0%,-6,5.1,
CCCN1C(=O)CSC1=Nc1ccccc1,·,-3,-3%,3,-6.3,
COc1cc(-c2noc(C)c2C#Cc2ccccn2)cc(OC)c1OC,·,·,·,60,3.7,
O=C(NCCCNC(=O)c1cc(Cl)ccc1Cl)c1ccco1,·,·,·,1,1.0,
CC(=O)N1CCN(c2ccccc2NC(=O)COc2ccccc2C)CC1,·,19,-6%,0,2.0,
Cc1nc2cc(-c3ccc(Cl)cc3)nn2c(NCCN(C)C)c1C,·,-21,7%,3,-0.9,
O=C(NCc1ccc(F)cc1Cl)C1CCN(S(=O)(=O)N2CCC3(CC2)OCCO3)CC1,-22,8,-1%,5,0.7,
O=C(NNS(=O)(=O)c1ccc([N+](=O)[O-])cc1)c1ccc([N+](=O)[O-])cc1,·,·,·,-2,-1.2,
CC(C)(c1ccccc1)c1ccc(OCCN)cc1,·,-20,-2%,1,14,
CCC(=O)Nc1ccc2c(c1)ncn2-c1ccccc1OC,-42,-1,7%,-4,1.9,
CCOc1ccccc1-c1nc(-c2cccc(Br)c2)no1,3,-11,3%,46,2.0,
Oc1ccc2ccccc2c1CNc1cnc2ccccc2c1,16,8,1.4µM*,99,0.3,
Clc1ccc(-c2c[n+]3c(n2-c2ccccc2)SCC3)cc1,·,12,5%,-7,2.6,
CC(=O)N1CCN(c2ccc(Oc3nnnn3-c3ccccc3)cc2)CC1,-4,-6,5%,-2,-2.9,
O=C(Nc1ccc2c(c1)CCC2)c1ccccc1,-35,4,7%,-2,-1.0,
CCC1(c2ccccc2)NC(=O)N(CC(=O)Nc2cc(S(=O)(=O)N3CCCCCC3)ccc2OC)C1=O (stereo not given),·,·,·,-2,6.5,
Cc1cc(C)cc(N(CC(=O)NCCSCc2ccco2)S(C)(=O)=O)c1,·,-1,1%,2,5.0,
Cc1ccccc1OCC(=O)N/N=C/c1ccc(N2CCOCC2)o1,·,·,·,2,-0.9,
COc1ccc(OC)c(S(=O)(=O)N2CCCC(C(=O)N3CCCC3)C2)c1 (stereo not given),·,·,·,6,-1.1,
Cc1cc(NS(=O)(=O)c2cn(C)nc2C)no1,·,·,·,-6,1.6,
CC(C)C(C)(C#N)NC(=O)CSc1nnc(C(F)(F)F)n1C (stereo not given),-22,0,-8%,-3,-1.6,
COC(=O)c1ccc(C2C(Oc3ccccc3)C(=O)N2CCc2ccc(OC)c(OC)c2)cc1 (stereo not given),-34,-11,-8%,5,-1.5,
Cn1cnnc1SCc1ccc(C(=O)N/N=C/c2cccs2)cc1,·,4,-5%,-1,·,
Cc1csc(NC(=O)CSc2nnc3ncccn23)n1,14,2,-12%,-8,-1.0,
COCCNC(=O)C(c1ccc(C)cc1)N(CCOC)C(=O)CCC(=O)Nc1ccccn1 (stereo not given),·,·,·,-6,-4.4,
# (continued)
SMILES,YopH inh,Arbovirus inh,Mtb growth,Mtb bLac sens,RecA intein inh,others
C(=N\Nc1nc(N2CCOCC2)nc(N2CCOCC2)n1)/c1ccco1,·,6,9%,-1,-3.2,
O=[N+]([O-])c1cccc(-c2csc(Nc3ccccc3)n2)c1,·,-36,0%,96,14,
Cn1cc(Br)c(C(=O)NNC(=O)c2ccc(Cl)cc2)n1,-17,-6,-16%,0,-2.4,
CN1C(=O)c2ccc(NC(=O)CSc3ccccc3)cc2C1=O,·,·,·,-1,2.0,
Cc1onc(-c2ccccc2)c1C(=O)Nc1nc2c(s1)CCCC2,34,-6,6%,41,0.7,
CN1C(=O)NC(c2ccc(O)cc2)C2=C1CN(c1ccc(O)cc1)C2=O (stereo not given),·,3,2%,2,·,
COc1ccc(CN2CSC(=S)N(Cc3ccc(OC)cc3)C2)cc1,·,·,35%,99,1.2,
O=C(CCSCCc1ccccn1)Nc1ccc(Cl)cn1,-6,6,-2%,-14,-0.9,
O=C(OCCN=C1NS(=O)(=O)c2ccccc21)C1CC(=O)N(c2ccc3ccccc3c2)C1 (stereo not given),-8,8,-5%,7,0.4,
CC(C)OC(=O)CSc1nnc2c3ccccc3n(C)c2n1,·,1,41%,46,-6.7,
CCCc1ccc(-c2ccc(C(=O)O)cc2)nc1,-24,1,1%,-3,-1.7,Arbovirus inh repeat=2
O=c1c2ccccc2[nH]c(=S)n1CCCN1CCN(c2ccccc2)CC1,·,·,·,1,2.7,
COc1ccc(-n2c(SCC(=O)c3c(N)n(C)c(=O)n(C)c3=O)nc3ccccc32)cc1,17,3,-5%,-1,3.3,
O=C(N/N=C/c1ccc(OC(=O)c2ccccc2Br)cc1)c1ccccn1,·,·,·,62,0.2,
Cn1c(O)c(/C=N/NC(=O)c2cc3ccccc3cc2O)c2ccccc21,·,·,·,-6,-0.2,
Cc1ccccc1CS(=O)(=O)c1nnc([C@H](CC(C)C)NC(=O)OC(C)(C)C)o1,-27,-1,1%,?,52*,
CC(=O)NC(Cc1c[nH]c2ccccc12)C(=O)NCCc1ccccn1 (stereo not given),·,·,·,-2,-4.7,
N#CCC(=N)N1CCN(c2ccc(Cl)cc2)CC1,-28,-7,4%,-9,3.0,
COCCNC(=S)NCCCNc1nc2cc3c(cc2cc1C#N)OCO3,-25,-3,1%,5,-267,
CCOc1ccc2nc(SCC(=O)N3CCN(C(=O)c4ccco4)CC3)sc2c1,-31,15,-5%,-6,0.2,
CCN(CC)C(=O)Cn1c(C)c(/C=C/c2cc[n+](C)cc2)c2ccccc21,·,·,·,1,-68,
O=C(c1cccc(C(=O)N2CCN(c3ccccc3F)CC2)n1)N1CCN(c2ccccc2F)CC1,-17,5,-4%,-5,1.1,
S=C(NC1CCCC1)N1CCN(c2ncccn2)CC1,·,9,-5%,-1,-0.9,
O=C(NC1CCN(S(=O)(=O)c2ccccc2F)CC1)c1ccco1,·,·,·,-5,-1.6,
Cc1ccc(-c2nc3sc(C#N)c(N)n3c(=O)c2C#N)cc1,·,-4,-2%,1,-6.0,
# (more compounds)
SMILES,YopH inh,Arbovirus inh,Mtb growth,Mtb bLac sens,RecA intein inh,others
COc1ccc(NC(=S)NC2CC3CCC(C2)N3Cc2ccco2)cc1 (stereo not given),·,1,-4%,3,-3.7,
O=C(COC(=O)C1=COCCO1)NC1CCCCCCC1,·,10,50%,90,0.0,
CCN(C(=O)[C@@H]1CCCN1C(=O)c1cccs1)c1nc2cc(Cl)ccc2s1,29,23,15%,3,2.6,
COc1ccccc1N(C(=O)c1ccco1)C(C(=O)NC1CCCC1)c1cccnc1 (stereo not given),-34,6,2%,4,-0.2,
CCN(CC)S(=O)(=O)c1ccc(N2CCOCC2)c(NC(=O)CNCCc2ccccc2)c1,·,·,-2%,-7,2.6,
Cc1cccn2c(=O)nc(SCC(=O)NCc3ccc(F)cc3)nc12,·,·,·,-10,5.2,
CC(=O)N1c2ccccc2C2(C)C(C1(C)C)C2(Cl)Cl (stereo not given),·,10,-3%,-3,0.6,
Cc1cccc(NC(=O)N2CCCC(CNC(=O)c3ccccc3Cl)C2)c1C (stereo not given),·,·,·,0,-0.8,
CC(=O)c1ccc(N2CCN(C(=S)Nc3ccc(Cl)c(Cl)c3)CC2)cc1,·,13,8%,6,-3.2,
CCOc1ccc(N2CC(C(=O)NCc3ccccn3)CC2=O)cc1 (stereo not given),·,·,·,-7,-0.5,
CCOC(=O)N1CCN(CC(=O)Nc2ccc(C)cc2)CC1,3,1,-7%,-7,2.3,Arbovirus inh repeat=3
CC(C)CC(=O)NS(=O)(=O)c1ccc(NS(C)(=O)=O)cc1,·,-7,-2%,4,-1.8,
COC(=O)c1ccccc1OCCCOc1ccc(C)cc1OC,-40,0,-12%,8,8.1,
CCCCn1c(=O)c2c(c3ccccc31)OCC(=O)N2,·,·,-15%,7,-1.8,
O=C(NCc1ccc(F)cc1)c1ccc(N2CCc3ccccc32)c([N+](=O)[O-])c1,-21,-5,14%,4,10,
Cc1ccsc1/C=C/c1ccc2ccccc2n1,-42,-6,·,0,4.6,
COc1cc(OC)c([C@H]2C=C(C)[C@H]3C[C@@H]2C3(C)C)c(OC)c1,·,·,·,17,8.7,
Cc1nnc(C)n1/N=C/c1cccc([N+](=O)[O-])c1,·,5,-2%,-8,1.5,
CC(NC(=O)c1ccc(OC2CCN(C(=O)c3cccnc3)CC2)cc1)C1CC1 (stereo not given),·,0,-18%,-1,-0.8,
CC(C)Oc1ccccc1C1CC(=O)Nc2c1c(=O)n(C)c(=O)n2C (stereo not given),-28,-5,·,-2,-0.8,
Clc1ccc(C2[C@H]3CN(Cc4ccc(-c5ccccc5)cc4)[C@H](c4ccccc4)C34CC2(c2cccnc2)C4)cn1 (stereo not given in full),·,·,75%,·,8.1,
CCc1c(C)sc(NC(NC(C)=O)(C(=O)OC)C(F)(F)F)c1C#N (stereo not given),-11,4,2%,3,-4.2,

# A portion of the library, so the mix of outcomes need not match the whole.
